Vaccinia Venus: qHTS for Stage-Specific Inhibitors of Vaccinia Orthopoxvirus: Venus Reporter Primary qHTS | Vaccinia virus Venus reporter expression, fluorescence | Potency, µM (doses to about 36.5 µM), for the others: at the top dose activity change, negative = inhibition, most hits filed as inhibitors | actives 0.46% (n = 330,000) | AID 720580, 2013; active means well fitted inhibition curve with a large enough effect; inconclusive means small, poorly fitted or top-dose-only effect; inactive means no such curve, though single readings can be large or run the other way; tested in A549 cells; further: nearly all actives have a fitted effect of over 30% in size; inactives centre near -10
Vaccinia mCherry: qHTS for Stage-Specific Inhibitors of Vaccinia Orthopoxvirus: mCherry Reporter Primary qHTS; Vaccinia virus mCherry reporter infection, fluorescence; about a quarter of the inactives have no number; Potency, µM (highest dose often 36.5 µM), for the others: at the top dose activity change, negative = inhibition, hits mostly inhibitors; actives 0.63% (n = 310,000); AID 720579, 2013; active = well fitted inhibition curve with a large enough effect; inconclusive = small, poorly fitted or top-dose-only effect; inactive = no such curve, though single readings can be large or run the other way; tested in A549 cells; further: nearly all actives have a fitted effect of over 35% in size; inactives centre near -10
The depositor's hits bear a star; i = inactive; ? = inconclusive; nt = not tested or not shown; & = joins results of further samples; [ ] = dose if it differs, or a comment. On the % scale 0 is the no-effect control and ±100 the full control effect; potency means the concentration at half of the fitted maximal effect.

SMILES	Vaccinia Venus	Vaccinia mCherry
Brc1ccc2c(c1)OCCOCCOCCOCCOCCOCCO2	-17%	i
CCC(CO)N=C1CC(C)(C)CC(=O)/C1=C(/O)CCCN1C(=O)c2ccccc2C1=O (stereo not drawn)	-16%	-6%
COc1ccccc1-n1c(SCC(=O)Nc2cccc(S(N)(=O)=O)c2)nc2ccccc2c1=O	-2%	5%
COc1cccc(C(=O)N/N=C/C(Br)=C/c2ccccc2)c1	?	?
CCOC(=O)[C@@H]1[C@H]2COc3ccccc3[C@@H]2N2C(=O)N(c3ccc(Br)cc3)C(=O)[C@]12C	-15%	i
O=C(O)CCC(=O)NNc1nc2ccccc2nc1-c1ccccc1	0%	i
Oc1[nH]c2ccccc2c1C=Nc1ccc2c(c1)OCO2	?	?
COC(=O)C[C@H]1CC[C@@H](NC(=O)Nc2ccc(C(F)(F)F)cc2)[C@@H](CO)O1	1%	1%
NC(=O)c1ccsc1NC(=O)CSc1ncnc2sccc12	0%	-6%
COc1ccccc1S(=O)(=O)Cc1ccc(C(=O)NCCN(C)C)o1	-10%	-19%
COc1ccc2c(c1)-c1nc(NC(=O)c3cc(Cl)ccc3OC)sc1CC2	10µM*	10µM*
C=C1C[C@]23C[C@@]1(O)CC[C@H]2[C@@]12C=C[C@H](O)[C@@](C)(C(=O)O1)[C@H]2[C@@H]3C(=O)O	-6%&-15%	-2%&-15%
O=C(CSc1nnc(-c2cccnc2)o1)Nc1cccc(F)c1	-11%	-19%
Cc1cccc(-c2nc(Cn3c(SCc4cc(C)ccc4C)nc4ccncc43)c(C)o2)c1	-1%	-14%
COCC(C)n1c(SCc2nc3ccccc3c(=O)[nH]2)nc2ccccc2c1=O (stereo not drawn)	-1%	-5%
CCOc1ccc(/C=C2\SC(=S)N(CC(=O)NCCCN3CCOCC3)C2=O)cc1	6%	i
COc1cccc(-c2nnc(SCC(=O)Nc3cc(C)on3)n2C)c1	-15%	i
CCN(CC)S(=O)(=O)c1ccc(N2CCCC2)c(NS(=O)(=O)c2ccccc2)c1	-10%	-1%
CC1(C)Cc2nc3[nH]c(=S)n(-c4ccccc4)c(=O)c3cc2CO1	-8%	-9%
COc1ccc(NC(=O)COC(=O)CNS(=O)(=O)c2ccccc2)cc1OC	2%	-7%
CCN1CCN(c2ccc(S(=O)(=O)N3CCCCC3)cc2NC(=O)CC(C)c2ccccc2)CC1 (stereo not drawn)	-24%	-6%
COc1ccc(Cc2nnc(-c3ccc(F)cc3)o2)cc1OC	-12%	-11%
Cc1ccc2nc(N3CCN(c4ccccc4)CC3)c3nnnn3c2c1	1%	-8%
O=C1C2C3C=CC(C4CC34)C2C(=O)N1/N=C/c1ccc(-c2ccccc2[N+](=O)[O-])o1 (stereo not drawn)	-27%	nt
O=C(Nc1cccc(C(F)(F)F)c1)NC1CCN(S(=O)(=O)c2ccc(F)cc2)CC1	-18%	-13%
COc1cccc(C(C)(O)c2nc(-c3cncnc3)cs2)c1 (stereo not drawn)	7%	8%
CCCOC(=O)c1ccc(NC(=O)Cc2cccs2)cc1	-13%	-10%
Cn1c(=O)c2c(SCC(=O)N3CCCc4ccccc43)nc(CC(C)(C)C)nc2n(C)c1=O	11µM*	?
CCCC[n+]1ccn(-c2nc3ccccc3nc2[N-]S(=O)(=O)c2ccc(Br)cc2)c1	-12%	-7%
CCN(CC(=O)Nc1c(F)cccc1F)C(=O)Cc1csc(-c2ccccc2)n1	-13%	-6%

Random excerpt: 3 entries already listed
SMILES	Vaccinia Venus	Vaccinia mCherry
CCCC[n+]1ccn(-c2nc3ccccc3nc2[N-]S(=O)(=O)c2ccc(Br)cc2)c1	-12%	-7%
Cc1ccc2nc(N3CCN(c4ccccc4)CC3)c3nnnn3c2c1	1%	-8%
CCN(CC(=O)Nc1c(F)cccc1F)C(=O)Cc1csc(-c2ccccc2)n1	-13%	-6%

Later entries.
SMILES	Vaccinia Venus	Vaccinia mCherry
CCOC(=O)C(=O)NCC(c1ccco1)S(=O)(=O)c1cccs1 (stereo not drawn)	-13%	i
CCCn1c(SCC(=O)c2c[nH]c3ccccc23)nnc1-c1ccncc1	9%	-13%
Cc1nc(S(=O)(=O)c2ccc(Cl)cc2)c(NCc2ccccc2)o1	-2%	-10%
COc1ccc(NS(=O)(=O)c2ccc(OCC(=O)N3CCOCC3)cc2)cc1	-26%	-7%
Fc1cccc(Cn2cc(C(=S)N3CCCCC3)c3ccccc32)c1	-22%	-24%
O=C(O)C1CCCCN1C(=O)c1ccc(S(=O)(=O)N2CCCC2)cc1 (stereo not drawn)	4%	-11%
COC(=O)C1N2C(=O)[C@@H](NC(=O)COc3ccccc3)[C@H]2SC1(C)C (stereo partly drawn)	-10%&-15%	-8%
Cc1cc(NC(=O)CSc2nc3c(C)cccc3cc2C#N)no1	-24%	-29%
O=C(/C=C/c1cn(-c2ccccc2)nc1-c1cccnc1)NCCN1CCOCC1	-12%	i
C[C@H](O)[C@@H]1C(=O)N2CCc3c([nH]c4ccccc34)[C@@H]2C[C@@H]1N(C)C(=O)Nc1cccc2ccccc12	-13%	i
CC1(C)CC(=O)C2=C(C1)Oc1ncn(Cc3ccco3)c(=N)c1C2c1ccccc1 (stereo not drawn)	-22%	-7%
S=C(NCc1ccco1)Nc1ccccn1	-13%	i
CCOc1ccc(-n2c(=O)c3sccc3n(CC(=O)NC3CCCCC3)c2=O)cc1	-11%	-5%
Cc1ccc(C)c(N2CCN(C(=O)CCc3nc(-c4ccccc4C(F)(F)F)no3)CC2)c1	-25%	-2%
Cc1ccnc(NC(=O)COc2ccc3oc4c(c3c2)CCCC4)c1	-8%	nt
COC(=O)c1nn(-c2ccccc2)c2nnc(Cc3ccc(C)cc3)c(=O)n12	-9%	-10%
CC(C)C(=O)NS(=O)(=O)c1ccc(N)cc1	-9%	-14%
Oc1oc(C=Nc2ccc(F)cc2F)c2ccccc12	-10%	-8%
Cc1ccc(NC(=O)C2CCCN2S(=O)(=O)c2ccc3nc(-c4ccccc4)[nH]c3c2)cc1C (stereo not drawn)	-19%	-6%
CCCCN(C(=O)COC(=O)CSc1cc(C)c2ccccc2n1)c1c(N)n(CCC)c(=O)[nH]c1=O	-2%	i
COC(=O)c1ccc(CSc2nc3ccccc3s2)o1	-2%	-12%
COC(=O)c1ccc(NC(=O)COc2ccccc2OC)cc1	-12%	-7%[1.46 µM]
Cn1cc(S(=O)(=O)NC[C@H]2O[C@@H](n3cnc4c(N)ncnc43)[C@H](O)[C@@H]2O)cn1	-14%	-19%
O=C1CCCN1CCCNc1nc2c(S(=O)(=O)c3ccc(Br)cc3)nnn2c2ccccc12	23%[7.34 µM]	30%[activator][7.34 µM]
O=C(O)c1cccc(N2C(=O)C=CC2=O)c1	-9%	-19%
O=C(Nc1nnc(-c2ccccc2)s1)c1cccc(S(=O)(=O)N2CCOCC2)c1	0%	i
CC12CCC(C(=O)NCCCN3CCOCC3)(C(Br)C1=O)C2(C)C (stereo not drawn)	-8%	-1%
COc1ccc(N2CC(C(=O)Nc3c4c(nn3-c3ccc(OC)cc3)CS(=O)(=O)C4)CC2=O)cc1 (stereo not drawn)	-15%	-16%
COC(=O)c1ccc(NC(=S)N2CCN(C(=O)c3ccco3)CC2)cc1	-5%	-18%
Cc1nc(C)c(-c2ccn(S(=O)(=O)c3ccc(Cl)cc3)n2)o1	-4%	-12%
O=C(OCC(=O)c1ccccc1Br)c1ccccn1	-2%	5%
N#C/C(=C\c1ccc(Cl)s1)C(=O)N1CCN(c2ccccc2)CC1	-13%	-18%
CCOc1cc(N2CCOCC2)c(OCC)cc1NC(=O)c1ccc(OC(C)C)cc1	2%	-9%
Cc1nc(CS(=O)c2ccc(Cl)cc2)cc(N2CCOCC2)n1 (stereo not drawn)	-11%	-18%
C/C(N)=C(/C#N)C(=O)COC(=O)C(c1ccccc1)c1ccccc1	-11%	i
COc1ccc(/C=C/C(=O)NCC(=O)N/N=C(/C)c2ccc(Cl)cc2)cc1	-10%	-4%
C[C@]12CCC3C(CC[C@H]4C[C@@H](O)CC[C@]34C)C1[C@H]1CN=N[C@H]1[C@@H]2O (stereo partly drawn)	1%	-11%
O=S1(=O)CCO[C@H]2Cc3ccccc3[C@H]2N1Cc1cccc(C(F)(F)F)c1	-17%&-8%	-11%&-14%
N/C(=N\OC(=O)Cc1ccccc1)c1ccccn1	-4%	-12%
O=C(c1ccccc1)[C@H]1CC=CC[C@H]1C(=O)O	-10%	nt
Fc1ccc(NC(=S)Nc2cccnc2)cc1	-14%	i
COc1ccc(S(=O)(=O)NCc2ccccn2)cc1NC(=O)c1ccc(C)cc1	-28%	?
Cc1cnc(C)c(-c2ccc(F)c3c2OC(CNC(=O)Cc2c(F)cccc2F)C3)n1 (stereo not drawn)	-1%	-14%
N/C(=N\OC(=O)c1ccc2c(c1)OCO2)c1cccc([N+](=O)[O-])c1	-18%	-5%
Nn1c(SCC(=O)N2CCCc3ccccc32)nnc1-c1ccccc1	-18%	nt
C[C@H]1CN=C(N(C)C)N1CCc1cccc(F)c1	-7%	i
O=C(COC(=O)c1cc([N+](=O)[O-])ccc1N1CCOCC1)NCc1ccccc1	-10%	-27%
CCOC(=O)c1sc(=S)n(-c2ccc(Cl)cc2)c1C	-11%	-15%
C#CCNC(=O)C[C@@H]1C[C@@]2(C(=O)OCC)CCCC=C2N(CCCCCCCC)C1=O	-11%	-16%
CC(C)NC(=O)Cn1cnc2c(cnn2-c2ccc(F)cc2)c1=O	-16%	-22%

Ordered by molar mass (descending): part of the list above.
SMILES	Vaccinia Venus	Vaccinia mCherry
COc1ccc(S(=O)(=O)NCc2ccccn2)cc1NC(=O)c1ccc(C)cc1	-28%	?
O=C(COC(=O)c1cc([N+](=O)[O-])ccc1N1CCOCC1)NCc1ccccc1	-10%	-27%
Nn1c(SCC(=O)N2CCCc3ccccc32)nnc1-c1ccccc1	-18%	nt
CC(C)NC(=O)Cn1cnc2c(cnn2-c2ccc(F)cc2)c1=O	-16%	-22%
C[C@H]1CN=C(N(C)C)N1CCc1cccc(F)c1	-7%	i
Fc1ccc(NC(=S)Nc2cccnc2)cc1	-14%	i

Other compounds follow.
SMILES	Vaccinia Venus	Vaccinia mCherry
CCc1ccc(S(=O)(=O)Nc2ccc(O)c3c(=O)cc(-c4ccccc4Cl)oc23)cc1	-30%	-9%
O=c1oc2ccccc2cc1-c1csc(Nc2ccc(O)cc2)n1	?	?
CCn1c(CNC(=O)C23CC4CC(CC(C4)C2)C3)nnc1SCC(=O)Nc1ccc(F)cc1	-6%	-2%
C/C(=C\c1ccccc1)CN1CCN(c2cccc(Cl)c2)CC1	-10%	-9%
C=CCN(C(=O)c1csnn1)C(C(=O)NC1CCCCC1)c1ccc(Cl)cc1 (stereo not drawn)	-5%	-4%
O=C(O)c1ccc(CSc2nnc(COc3ccc(Cl)cc3Cl)o2)cc1	-1%	-20%
O=C(NCCCCCNC(=O)c1cccnc1)c1cccnc1	-13%	-19%
O=C(Nc1ccc2c(c1)OCCO2)C(C1CC1)N1CCN(c2ccc(F)cc2)CC1 (stereo not drawn)	-1%	43%[activator]
COCCN(CCOC)C(=O)c1cc2sc3ccccc3c2s1	-15%	i
C=CCn1c(SCC(=O)NCCO)nc2sc(C)c(C)c2c1=O	-12%	-13%
CCOc1ccccc1NC(=S)NCc1ccccc1	-1%	i
COc1ccc(CCNC(=O)COC(=O)c2cc(=O)[nH]c3ccccc23)cc1	-6%	-11%
O=C(NCCCN1CCCCCC1)c1ccc2c(c1)NC(=O)C(N1CCOCC1)S2 (stereo not drawn)	4%	nt
NNC(=O)c1cncn1-c1ccc(F)cc1	-11%	i
CC1=C(c2ccccc2)[N+](=O)C2(CCCCC2)N1[O-]	-11%	-3%
S=c1[nH]c(-c2ccc(Cl)cc2)cs1	-2%	-15%
CN(Cc1ccccc1)C(=O)c1cn(C)c2ccc(S(=O)(=O)N3CCCCC3)cc2c1=O	6%	-5%
CCOc1cc2c(cc1OCC)C(c1ccccc1OC)OC(=O)C2 (stereo not drawn)	-19%	-14%
CCOC(=O)C1=C(C)OC(N)=C(C#N)C1c1cccc(C)c1 (stereo not drawn)	-3%	-11%
CC1=C(C#N)C(=O)NC(C)(C)C1	-7%	-20%[1.46 µM]
COc1ccc(C(=O)C2CCCN(Cc3ccc(Sc4nncn4C)o3)C2)cc1F (stereo not drawn)	-14%	i
COc1ccc(-c2cc(C(=O)NCc3ccco3)no2)cc1OC	-9%	-10%
COCCNC(=O)C1(C)CCCN(C(=O)c2ccccc2C(F)(F)F)C1 (stereo not drawn)	-3%	-10%
Cc1cc(S(=O)(=O)N2CCCOC2CNC(=O)C(=O)NCCc2ccco2)ccc1F (stereo not drawn)	-19%	-19%
Cc1ccc(/C=C/C(=O)Nc2ccc(N(C)C)cc2)o1	-2%	i
Cc1oc(-c2cccc(Br)c2)nc1CN1CCC(C(=O)NCc2ccccc2)CC1	-15%	-22%
CCn1c(-c2cc(C3CC3)nc3ccccc23)n[nH]c1=S	-12%	i
CCCOc1ccc(OCCn2nc(C(=O)O)c3ccccc3c2=O)cc1	-6%	-2%
Cc1ccc(/C=C/C(=O)OCC(=O)c2ccc3c(c2)NC(=O)CO3)o1	6%	-7%
CCN1CCN(c2ccc(S(=O)(=O)N3CCCCC3)cc2NC(=O)c2ccccc2)CC1	-11%	i
